Assay outcomes deposited in PubChem BioAssay by ICCB-Longwood Screening Facility, Harvard Medical School.
Sa helicase inh: blocks Staphylococcus aureus DNA helicase | inhibition, %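 (tested at about 80 µM)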 | 120,000 tested, 0.05% active | purified S. aureus helicase, fluorescence unwinding assay; about half of the hits fall short of the stated cut;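 active means both duplicates at 50% or more, or one of them with a favoured structure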;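 further: 0% = mean of negative control wells and 100% = mean of positive control wells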
MgrA-DNA mod: alters Staphylococcus aureus MgrA binding to DNA; fluorescence polarization; inhibition, %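 (about 10 µg/mL by stock and volumes)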; 84,000 tested, 0.13% active; AID 602314;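 active means above 50% in either of two replicates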;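 further: 0% = protein plus DNA without compound and 100% = DNA alone without protein; higher means less MgrA bound to DNA so lower polarization; one replicate is shown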
* = called active by the depositor; & = joins results of further samples. The list is partial; count on the stated rates, not on these rows.

What do the screens show for `NC(=O)N/N=C/c1ccc(-c2cccc(C(F)(F)F)c2)o1`?
Sa helicase inh: 19.0

Results for CCCCN1CCc2c(c3ccccc3n2Cc2ccccc2)C1 ?
Sa helicase inh: 6.0; MgrA-DNA mod: -2.6

Results for Cc1sc(NC(=O)c2cccs2)c(C(N)=O)c1C ?
Sa helicase inh: 2.0; MgrA-DNA mod: 6.8

What do the screens show for `Cc1oc(C(C)(C)C)c(CN2CCCC2)c1C(=O)O`?
Sa helicase inh: 5.0; MgrA-DNA mod: -2.3

How did CCOC(=O)C1CSC(CC(=O)Nc2ccc(OCC)cc2)C(=O)N1 (stereo not drawn) do in these assays?
Sa helicase inh: 9.0; MgrA-DNA mod: -2.5

How did COc1cc2c(c(OC)c1OC)C(=O)/C(=C/N(C)C)C2 do in these assays?
Sa helicase inh: 2.0

How did CN(C)N=Nc1cccc(/C=C/C(=O)O)c1 do in these assays?
Sa helicase inh: 25.0; MgrA-DNA mod: 19.2

How did O=C(Nc1ccc(-c2nc3ccccc3o2)c(O)c1)c1ccc2c(c1)OCCO2 do in these assays?
MgrA-DNA mod: -0.4

What do the screens show for `Nc1c(Nc2ccccc2C(=O)O)c2ccccc2oc1=O`?
Sa helicase inh: 9.0

What do the screens show for `O=C1C=C(NCc2ccc3c(c2)OCO3)CC(c2ccccc2)C1` (stereo not drawn)?
Sa helicase inh: 11.0

What do the screens show for `CC(=O)NC1C(=O)N(CCOc2ccccc2)c2ccccc21` (stereo not drawn)?
Sa helicase inh: -2.0; MgrA-DNA mod: -0.3

What do the screens show for `Cc1ccc2c(CC(=O)N3C(=O)c4cccc(N)c4C3=O)coc2c1`?
Sa helicase inh: -25.0

What do the screens show for `Cc1ccc(-n2c(=O)c3c4c(sc3n(CC(N)=O)c2=O)CCCCC4)cc1C`?
Sa helicase inh: 4.0

What do the screens show for `O=C1CSC(c2ccc3c(c2)OCO3)N1c1ccc(F)cc1` (stereo not drawn)?
MgrA-DNA mod: 1.4

What do the screens show for `Cc1cc(C)c2c(CC(=O)NN3CCN(C)CC3)coc2c1`?
Sa helicase inh: 8.0; MgrA-DNA mod: 0.7

How did O=C(C(Cc1ccccc1)n1cccc1)N1CCCC1 (stereo not drawn) do in these assays?
Sa helicase inh: 12.0; MgrA-DNA mod: 0.6

Results for C=CCn1c(COc2ccc(OC)cc2)nnc1SC(C(=O)NC(=O)NC)c1ccccc1 (stereo not drawn) ?
Sa helicase inh: 14.0

How did COc1ccc(NC(=O)C(c2ccccn2)N(C(C)=O)c2ccc(C)cc2)cc1 (stereo not drawn) do in these assays?
Sa helicase inh: 3.0

What do the screens show for `CC(C)c1cccc2c1OC(C(C)C)C(=S)N2CC(=O)O` (stereo not drawn)?
MgrA-DNA mod: -12.9

Results for C=CCn1c(SCC(=O)NCCO)nc2sc3c(c2c1=O)CCCC3 ?
MgrA-DNA mod: -0.6

What do the screens show for `COc1ccc(-c2nc(CSCC(=O)N(C)Cc3ccccc3)c(C)o2)cc1OC`?
Sa helicase inh: 19.0; MgrA-DNA mod: -0.8

Results for COC(=O)C1=C(C)NC(C)=C(C(=O)OC)C1c1ccccc1[N+](=O)[O-] ?
MgrA-DNA mod: 0.1&-2.0&4.5

Results for CCOC(=O)c1[nH]c(CBr)c(C(=O)OCC)c1C ?
Sa helicase inh: -19.0; MgrA-DNA mod: -8.6

What do the screens show for `Oc1ccc(CCc2n[nH]c(=S)n2-c2ccc(F)cc2)cc1`?
MgrA-DNA mod: 1.9

What do the screens show for `CN(CC(=O)Nc1ccc(N2CCOCC2)cc1)c1nc(-c2ccccc2)nc2ccccc12`?
Sa helicase inh: -6.0

How did COC(=O)c1ccc(NS(=O)(=O)c2cccc3cccnc23)cc1 do in these assays?
Sa helicase inh: -28.0

How did O=C(CC(NCCC1=CCCCC1)C(=O)O)Nc1ccccc1 (stereo not drawn) do in these assays?
Sa helicase inh: -8.0

What do the screens show for `O=C(Cn1nc(-c2ccccc2)c2ccccc2c1=O)Nc1cccnc1`?
Sa helicase inh: 3.0

How did Fc1ccc(OC2OCCOC2Oc2ccc(F)cc2)cc1 (stereo not drawn) do in these assays?
Sa helicase inh: 11.0

How did CC1=C(CC(=O)O)c2cc(F)ccc2/C1=C\c1ccc(S(C)=O)cc1 (stereo not drawn) do in these assays?
MgrA-DNA mod: 2.7

How did CCC(C)NS(=O)(=O)c1c[nH]c(C(=O)OC)c1 (stereo not drawn) do in these assays?
Sa helicase inh: -6.0

Results for c1ccc(NCn2nnc3ccccc32)cc1 ?
Sa helicase inh: -19.0; MgrA-DNA mod: 0.8

Results for CCOC(=O)C1=C(C)OC(N)=C(C#N)C1c1ccccc1OC (stereo not drawn) ?
MgrA-DNA mod: 0.3

What do the screens show for `CCCN(CCC)S(=O)(=O)c1ccc(C(=O)Nc2ccc3nc(NC(=O)c4ccc(S(=O)(=O)N(CCC)CCC)cc4)sc3c2)cc1`?
MgrA-DNA mod: 3.2

How did CCOC(=O)c1c(C)c(C(=O)Nc2ccc(C(C)C)cc2)c(C)n1C do in these assays?
Sa helicase inh: 11.0; MgrA-DNA mod: 0.4

What do the screens show for `Cc1noc(C(F)(F)F)c1C(=O)O/N=C(\N)c1ccc(C(F)(F)F)cc1`?
Sa helicase inh: -13.0

Structures from the list above that have an NH in an aromatic ring, in the order listed:
Results for CCOC(=O)c1[nH]c(CBr)c(C(=O)OCC)c1C ?
Sa helicase inh: -19.0; MgrA-DNA mod: -8.6

What do the screens show for `Oc1ccc(CCc2n[nH]c(=S)n2-c2ccc(F)cc2)cc1`?
MgrA-DNA mod: 1.9

How did CCC(C)NS(=O)(=O)c1c[nH]c(C(=O)OC)c1 (stereo not drawn) do in these assays?
Sa helicase inh: -6.0

Carrying on.
What do the screens show for `COCCCNc1nc2ccccc2[nH]c1=O`?
Sa helicase inh: 15.0

How did COc1ccc(OC)c(N=C2SCCCN2C(=O)c2cc(=O)[nH]c3ccccc23)c1 do in these assays?
Sa helicase inh: -3.0

How did N#Cc1c(N)nc2c(c1-c1ccccc1)CCC2 do in these assays?
Sa helicase inh: 5.0; MgrA-DNA mod: -0.1

How did CCOC(=O)c1cnc(COc2ccccc2Cl)[nH]c1=O do in these assays?
MgrA-DNA mod: -0.2

How did O=C(Cn1nc(Cc2ccncc2)c2ccccc2c1=O)N1CCCC1 do in these assays?
Sa helicase inh: 24.0

What do the screens show for `Cc1ccc(N(C(C)C(=O)N(C)C)S(C)(=O)=O)cc1` (stereo not drawn)?
Sa helicase inh: 7.0; MgrA-DNA mod: -0.9

Results for CN(C)CCNC(=O)c1ccc2c(=O)n(Cc3ccc4c(c3)OCO4)c(=S)[nH]c2c1 ?
Sa helicase inh: 11.0; MgrA-DNA mod: -3.5

Results for N#Cc1ccccc1S(=O)(=O)N1CCN(Cn2c(Cc3ccccc3)nc3ccccc32)CC1 ?
Sa helicase inh: 20.0

Results for CC1=NN(c2ccccc2)C(=O)C1N=Nc1ccc([N+](=O)[O-])cc1 (stereo not drawn) ?
MgrA-DNA mod: -1.6

Results for Nc1ccc2c(c1)C(=O)N(CCCC(=O)O)C2=O ?
Sa helicase inh: -3.0

Results for CC(=O)c1cc2c3ccccc3ccc2c2ccccc12 ?
MgrA-DNA mod: -7.9

What do the screens show for `Cc1ccc(NC(=O)CSc2nc3ccsc3c(=O)n2Cc2ccccc2F)cc1Cl`?
Sa helicase inh: 0.0; MgrA-DNA mod: -1.3

Looked up by compound from the list above:
Results for CC(=O)c1cc2c3ccccc3ccc2c2ccccc12 ?
MgrA-DNA mod: -7.9

Results for CC1=NN(c2ccccc2)C(=O)C1N=Nc1ccc([N+](=O)[O-])cc1 (stereo not drawn) ?
MgrA-DNA mod: -1.6

How did N#Cc1c(N)nc2c(c1-c1ccccc1)CCC2 do in these assays?
Sa helicase inh: 5.0; MgrA-DNA mod: -0.1

How did O=C(Cn1nc(Cc2ccncc2)c2ccccc2c1=O)N1CCCC1 do in these assays?
Sa helicase inh: 24.0

What do the screens show for `Cc1ccc(N(C(C)C(=O)N(C)C)S(C)(=O)=O)cc1` (stereo not drawn)?
Sa helicase inh: 7.0; MgrA-DNA mod: -0.9

What do the screens show for `COCCCNc1nc2ccccc2[nH]c1=O`?
Sa helicase inh: 15.0

(listing goes on)
How did c1ccc(Cn2c(SCC3CCCCO3)nnc2-c2ccco2)cc1 (stereo not drawn) do in these assays?
Sa helicase inh: -4.0

How did Cc1ccc(NC(=O)Nc2nnc(N3C(C)CCCC3C)s2)cc1C (stereo not drawn) do in these assays?
Sa helicase inh: 4.0; MgrA-DNA mod: 0.1

How did Cc1ccc(Sc2cccc(F)c2C#N)cc1 do in these assays?
MgrA-DNA mod: -2.4

How did CSc1ccc(OC(=O)Nc2ccccc2)cc1 do in these assays?
MgrA-DNA mod: 0.4

How did CC1(C)S[C@@H]2[C@H](NC(=O)C3(N)CCCCC3)C(=O)N2[C@H]1C(=O)O do in these assays?
MgrA-DNA mod: 1.1

How did Cc1cccc(C)c1NC(=O)CNc1ccccc1 do in these assays?
Sa helicase inh: 9.0; MgrA-DNA mod: 5.8

Results for O=S(=O)(c1ccc(F)cc1)N1CCN(S(=O)(=O)c2cccs2)CC1 ?
Sa helicase inh: 2.0; MgrA-DNA mod: -0.9

Results for O=C(Nc1ccc(S(=O)(=O)c2ccc(NC(=O)c3ccco3)cc2)cc1)c1ccco1 ?
Sa helicase inh: -2.0; MgrA-DNA mod: 2.4

What do the screens show for `O=C(O)CSCC(=O)N1CCc2c([nH]c3ccccc23)C1C(F)(F)F` (stereo not drawn)?
MgrA-DNA mod: -1.7

What do the screens show for `O=C(c1ccc(F)cc1)N1CCCc2ccccc21`?
Sa helicase inh: 28.0

How did N#Cc1ccc(COC(=O)CCC(=O)c2ccc(F)cc2)cc1 do in these assays?
Sa helicase inh: -23.0; MgrA-DNA mod: -2.0

What do the screens show for `CCCCOc1cccc(OCCCC)c1Nc1cc(C)on1`?
Sa helicase inh: -21.0

Results for Cn1c(CSc2cccs2)n[nH]c1=S ?
MgrA-DNA mod: -0.4

Results for CCCCN(C)S(=O)(=O)c1ccc2c(c1)CC(C)N2C(C)=O (stereo not drawn) ?
Sa helicase inh: -20.0

What do the screens show for `C/C(N)=C(/C#N)C(=O)CSc1nnc(-c2cccnc2)n1C1CCCCC1C` (stereo not drawn)?
Sa helicase inh: 1.0

What do the screens show for `c1coc(-c2cc(-c3nc4c5ccccc5ncn4n3)n[nH]2)c1`?
Sa helicase inh: 14.0; MgrA-DNA mod: 9.6

What do the screens show for `O=C1OCCC1Sc1nc(-c2ccccc2)cs1` (stereo not drawn)?
Sa helicase inh: 6.0; MgrA-DNA mod: -0.3

How did COc1ccc(CCNC(=S)Nc2cccc(C(F)(F)F)c2)cc1OC do in these assays?
MgrA-DNA mod: 3.6

What do the screens show for `CCOC(=O)c1c(NC(=O)COc2ccc(Cl)cc2)sc(C(=O)Nc2ccccc2F)c1C`?
MgrA-DNA mod: -0.1

How did O=S(=O)(c1ccc(OCC(O)CN2CCCCC2)cc1)N1CCOCC1 (stereo not drawn) do in these assays?
Sa helicase inh: 11.0

Results for NC(=O)C1CCN(C(=O)NC2CC(=O)N(c3ccc(Cl)cc3)C2)CC1 (stereo not drawn) ?
Sa helicase inh: 4.0

Results for CC1SC(C)C(=O)N(CC(=O)Nc2ccccc2)C1=O (stereo not drawn) ?
Sa helicase inh: 7.0

How did O=C(CC(c1ccccc1)c1cc(Cl)ccc1O)NCCCN1CCOCC1 (stereo not drawn) do in these assays?
Sa helicase inh: 4.0

What do the screens show for `CCn1c2ccccc2c2nnc(SCC(=O)Nc3nccs3)nc21`?
Sa helicase inh: -24.0

How did O=C(Cn1nc(Cc2ccncc2)c2ccccc2c1=O)NCCc1ccc(Cl)cc1 do in these assays?
Sa helicase inh: 4.0

How did CSc1sc(-c2nc(C(C)(C)C)cs2)c2c1C(=O)CCC2 do in these assays?
MgrA-DNA mod: -1.9

Results for CC(OC(=O)Cn1ccc(C(F)(F)F)n1)c1nc2ccccc2c(=O)[nH]1 (stereo not drawn) ?
Sa helicase inh: -6.0

How did O=c1[nH]c2ccccc2nc1C(=S)N1CCOCC1 do in these assays?
Sa helicase inh: 11.0; MgrA-DNA mod: 2.0

How did NC(=S)N/N=C/c1nc2ccccc2n1Cc1ccccc1 do in these assays?
Sa helicase inh: 1.0

What do the screens show for `O=C(O)CC1C(=O)NCCN1C1Cc2ccccc2C1` (stereo not drawn)?
Sa helicase inh: -4.0

How did CCCN(C)S(=O)(=O)c1ccc(I)cc1 do in these assays?
Sa helicase inh: -3.0; MgrA-DNA mod: 1.1

What do the screens show for `NCCC1CCCO1` (stereo not drawn)?
Sa helicase inh: 0.0

How did CN(C)c1ccc(-c2n[nH]c3c2C(=O)CCC3)cc1 do in these assays?
Sa helicase inh: 23.0; MgrA-DNA mod: -0.1

Results for Cn1nnnc1SCC(=O)c1ccc(Br)s1 ?
Sa helicase inh: -8.0

What do the screens show for `CCN(CC)c1ccc2c(c1)oc(=O)c1c(Cl)cc(=O)oc12`?
Sa helicase inh: -53.0; MgrA-DNA mod: 19.9

Results for CCCNC(=O)C1=C(C)C(=O)OC12CCN(S(C)(=O)=O)CC2 ?
Sa helicase inh: 8.0

2 consecutive compounds out of the list so far, quoted:
How did O=C(Cn1nc(Cc2ccncc2)c2ccccc2c1=O)NCCc1ccc(Cl)cc1 do in these assays?
Sa helicase inh: 4.0

How did CSc1sc(-c2nc(C(C)(C)C)cs2)c2c1C(=O)CCC2 do in these assays?
MgrA-DNA mod: -1.9

(further entries)
Results for Cc1cccc2nc(-c3ccco3)oc(=O)c12 ?
MgrA-DNA mod: 0.7

What do the screens show for `COc1cc(OC)c(NC(=O)c2c(C)nn(-c3ccccc3)c2-n2cccc2)cc1Cl`?
Sa helicase inh: 0.0; MgrA-DNA mod: -0.9

Results for Cc1cc(NC(=O)COC(=O)C2CSC3(C)CCC(=O)N23)no1 (stereo not drawn) ?
Sa helicase inh: -6.0

What do the screens show for `CCSc1nc2c(c(=O)n1C)C1(CCCCC1)Cc1ccccc1-2`?
Sa helicase inh: -2.0; MgrA-DNA mod: 1.1

Results for Cc1ccc2c(CC(=O)NCC(=O)Nc3c(C)cccc3C)coc2c1 ?
Sa helicase inh: 4.0
